eIF4H inh: human eIF4H binding inhibitors, primary screen, translation initiation inhibitor project, biochemical, uHTS, fluorescence polarization | Eukaryotic translation initiation factor 4H (Homo sapiens), Q15056 | eIF4H fluorescence polarization binding assay | inhibition, % at 35 µM | 290,000 tested, 0.94% active;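 active = 50% or more with normal probe brightness, or confirmed in later tests; about a fifth of its hits are not listed in these tables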;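 also: calls also rest on retests at 20 µM and on dose response follow-up; 0% = protein and probe with vehicle and 100% = probe without protein; strong numbers were not always called active; many hits fall short of the cut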
PABP FP inh: PABP poly(A) RNA binding inhibitors, primary screen, biochemical, fluorescence polarization, uHTS; Polyadenylate-binding protein 1 (Homo sapiens), P11940; inhibition, % at 35 µM; 290,000 tested, 1% active;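 active = 50% or more with normal probe brightness, or confirmed in later tests; about a fifth of its hits are not listed in these tables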;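 also: calls also rest on retests at 20 µM and on dose response follow-up; controls were probe without protein and protein plus probe with vehicle; some compounds called inactive have numbers as strong as hits; many hits fall short of the cut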
Target sequence (P11940 whole entry, looked up): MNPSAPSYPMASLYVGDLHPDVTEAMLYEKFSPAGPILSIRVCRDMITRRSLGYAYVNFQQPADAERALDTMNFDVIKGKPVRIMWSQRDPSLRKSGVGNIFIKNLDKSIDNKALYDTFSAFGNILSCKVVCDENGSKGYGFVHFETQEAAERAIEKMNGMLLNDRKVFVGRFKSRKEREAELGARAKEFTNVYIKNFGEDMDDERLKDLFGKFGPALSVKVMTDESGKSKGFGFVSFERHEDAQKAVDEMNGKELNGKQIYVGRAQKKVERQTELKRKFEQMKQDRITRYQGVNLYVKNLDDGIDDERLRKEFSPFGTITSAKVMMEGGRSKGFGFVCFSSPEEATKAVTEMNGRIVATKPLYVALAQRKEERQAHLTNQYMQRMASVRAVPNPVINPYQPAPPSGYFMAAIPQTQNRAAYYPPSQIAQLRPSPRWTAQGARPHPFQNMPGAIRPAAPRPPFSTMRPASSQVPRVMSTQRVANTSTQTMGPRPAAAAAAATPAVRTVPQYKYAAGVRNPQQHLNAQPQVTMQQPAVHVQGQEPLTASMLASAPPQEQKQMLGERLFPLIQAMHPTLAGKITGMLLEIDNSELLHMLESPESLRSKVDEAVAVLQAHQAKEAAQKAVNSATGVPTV
HIV Env fusion: inhibitors of HIV-1 Env-driven cell-cell fusion, primary screen, HeLa-JRFL effector, CEM21 target cells, luciferase | inhibition, % at 12.3 µM | AID 651610, 2012 | 360,000 tested, 1.1% active;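 active = mean replicate inhibition score of at least 50 and every replicate individually at or above 50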;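 also: 0% = plate neutral controls and 100% = maraviroc near 300 nM; one replicate is shown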
Yeast UUG start: modulators of yeast start codon fidelity, primary screen, whole organism, S. cerevisiae, single point, plate reader; S. cerevisiae UUG-firefly luciferase reporter, luminescence/redox ratio; activity score, % at 18.7 µM; AID 602363, 2012; 350,000 tested, 0.13% active;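 active = replicate mean at a twofold rise or more, about +100% in these data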;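 also: firefly luciferase made from a UUG start codon reports start codon fidelity; reporter light over untreated wells divided by growth signal over untreated wells; some hits fall short of that in this replicate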
CSC inhib: cancer stem cell viability inhibitors, primary screen, luminescence. 300,000 tested, 1.1% active. cancer stem cell-like cells viability. inhibition, % at 7.5 µM;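 active = mean at 75% or more and at least half the replicates too; tested in HMLE shEcad cells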;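 also: 0% = median of negative and 100% = median of positive control wells; the first replicate is given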
MT1-MMP act inh: blockers of MT1-MMP proenzyme processing, primary screen, HT1080 RFP-PRO-GFP cells, GFP/RFP fluorescence. GFP/RFP ratio fluorescence, overnight; percent of plate control window, DMSO zero. Matrix metalloproteinase-14 (Homo sapiens), P50281. GFP/RFP ratio change, % at 20 µM. 360,000 tested, 0.061% active;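 active = GFP/RFP ratio change of at least 30% with cell ATP level not reduced by more than half and red fluorescence within 50% of control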; also: strong numbers were not always called active
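Assay system: HT1080 RFP-PRO-GFP cells | Dosing: 20 µM single dose, 1% DMSO | Incubation: Cells overnight before dosing, compound overnight, 37 °C, 5% CO2 | Evaluation: GFP/RFP fluorescence ratio | Control set: DMSO-only wells and HT1080 RFP-L50D-GFP cell wells as references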
Rce1 inhib: yeast Rce1p protease inhibitors, primary screen, biochemical, fluorescence, cell-free homogeneous; AID 2563, 2010; calls only; 290,000 tested, 0.27% active; yeast membranes, quenched prenylated peptide cleavage fluorescence;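 active = fall in fluorescence gain of 50% or more versus controls, with final raw signal at or below 3038400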;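 also: plate controls were neutral control wells for no effect and wells lacking membranes for full effect; tested at 10 µM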
Target sequence (Q03530 whole entry, looked up): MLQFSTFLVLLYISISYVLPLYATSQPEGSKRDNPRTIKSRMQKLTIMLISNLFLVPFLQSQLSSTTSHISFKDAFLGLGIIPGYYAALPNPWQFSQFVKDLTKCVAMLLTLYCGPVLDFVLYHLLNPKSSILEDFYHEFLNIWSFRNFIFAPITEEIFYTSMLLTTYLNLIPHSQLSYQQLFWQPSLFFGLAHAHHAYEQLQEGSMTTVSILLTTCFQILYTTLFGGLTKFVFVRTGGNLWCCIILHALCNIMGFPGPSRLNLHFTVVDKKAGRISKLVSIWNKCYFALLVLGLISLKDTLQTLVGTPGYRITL
eIF4H inh retest: second read-out of eIF4H inh, no call of its own (marks repeat the call); inhibition, %; compound at 20 µM; confirmation average;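 mean of two retest wells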
PABP FP inh retest: second read-out of PABP FP inh, no call of its own (marks repeat the call); inhibition, %; compound at 20 µM; confirmation repeats;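 mean of two retest wells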
MT1-MMP act inh RFP: also measured in MT1-MMP act inh; calls as there; RFP signal change, %; measured here: RFP expression control read;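 0 = vehicle wells; hits needed this value within 50% of zero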
* hit, by the source's call; i = inactive; . = no result given.

SMILES	eIF4H inh	PABP FP inh	HIV Env fusion	Yeast UUG start	CSC inhib	MT1-MMP act inh	MT1-MMP act inh RFP	Rce1 inhib	others
Cc1nc2cc(NC(=O)CS(=O)(=O)c3ccc(F)cc3)ccc2s1	.	.	-6	30	4	6	-1	i
CC[C@H](C)[C@@H](NC(=O)O[C@@H]1C(=O)c2cc(OC)ccc2O[C@H]1c1ccc(OC)c(Br)c1)C(=O)OC	3	-3	.	-20	18	1	-6	.
CC(=O)C1C(=O)C=C(c2ccco2)CC1c1ccccc1 (configuration not stated)	12	14	-54	-9	0	1	-2	i
COc1ccc(C(=O)O/N=C/c2ccc(S(=O)c3ccc(Cl)cc3)nc2)cc1 (configuration not stated)	-17	-4	.	-18	-8	-1	-3	i
COc1ccc(C(C(=O)NC(C)(C)C)N(C(=O)CCC(=O)Nc2cc(C)on2)c2c(C)cccc2C)cc1 (configuration not stated)	1	-7	11	-24	.	-6	-6	i
COc1ccc2nc3oc(C(=O)N4CC(C)CC(C)C4)cc3cc2c1 (configuration not stated)	-3	12	.	-14	20	6	2	i
Cc1ccsc1C(=O)N1CCC1(C)C(=O)NCC(C)(C)C (configuration not stated)	.	.	-7	-11	.	6	6	.
Cc1ccc2[nH]c(CN3CCC(CO)(CC4CCCCO4)CC3)c(C)c2c1 (configuration not stated)	25	-4	-29	-3	21	0	3	i
CC(CCc1ccccc1)NC(=O)c1nnc(Cc2ccc(Cl)cc2)o1 (configuration not stated)	-8	-14	22	-29	13	.	.	i
O=C(CN1C(=O)NC2(CCCCC2)C1=O)NC1CCCc2ccccc21 (configuration not stated)	1	-2	-26	.	-3	2	3	i
NC(=O)NC(=O)CSc1nnc(-c2ccc(Cl)cc2)n1CC1CCCO1 (configuration not stated)	2	21	-2	.	-8	-1	0	i
N#Cc1ccsc1NC(=O)C1CC(=O)N(Cc2ccccc2)C1 (configuration not stated)	.	.	-11	27	-13	-1	5	i

Structural class: those above containing a furan ring, fused or not.
SMILES	eIF4H inh	PABP FP inh	HIV Env fusion	Yeast UUG start	CSC inhib	MT1-MMP act inh	MT1-MMP act inh RFP	Rce1 inhib	others
CC(=O)C1C(=O)C=C(c2ccco2)CC1c1ccccc1 (configuration not stated)	12	14	-54	-9	0	1	-2	i
COc1ccc2nc3oc(C(=O)N4CC(C)CC(C)C4)cc3cc2c1 (configuration not stated)	-3	12	.	-14	20	6	2	i

More compounds follow.
SMILES	eIF4H inh	PABP FP inh	HIV Env fusion	Yeast UUG start	CSC inhib	MT1-MMP act inh	MT1-MMP act inh RFP	Rce1 inhib	others
O=C(NCS(=O)(=O)c1ccccc1)c1ccccc1	2	24	.	-13	-10	6	3	.
COc1ccc(N(CC(=O)NC2CCCC2)C(=O)CS(=O)CC(=O)Nc2ccc3c(c2)OCO3)cc1 (configuration not stated)	6	-6	13	-5	-7	3	1	i
O=C(CSc1nnc(CCCN2C(=O)c3cccc4cccc(c34)C2=O)n1-c1ccccc1)NCCCN1CCOCC1	2	-6	.	.	12	-4	4	i
O=C(CN1C(=O)CNC1=O)Nc1cc(Cl)cc(Cl)c1	.	.	-8	-12	-9	-1	-2	.
O=C(CCC(=O)Nc1cccc([N+](=O)[O-])c1)N/N=C/c1cccs1	4	-7	1	-10	6	2	3	i
COc1ccc(S(=O)(=O)n2ccc(-c3ccc4c(c3)CCC(C)(C)O4)n2)cc1	-1	-7	18	-59	25	3	-11	i
COc1ccc(-c2noc(CN(C)C(=O)c3ccco3)n2)cc1	-14	2	-4	-17	-12	0	4	i
Cc1ccc(CN2CCN(/N=C/c3ccc(C)s3)CC2)c(C)c1	-3	-7	.	-2	29	-5	-6	i
O=C(Nc1cccc(Cl)c1)N(Cc1nc2ccccc2c(=O)[nH]1)C1CCCC1	-8	-2	.	-13	3	1	-2	i
O=C(c1ccc2c(c1)OCO2)N1CCN(C(=O)c2ccco2)CC1	-11	34	-55	.	-11	-1	7	i
Cc1cc([N+](=O)[O-])nn1CCCC(=O)NCc1ccc(F)cc1	-6	0	-2	.	-8	7	5	i
COc1ccc(-c2nn(-c3ccccc3)cc2C(=O)O)cc1	1	7	-28	-16	-5	2	1	i
O=C(Nc1cccc(C(=O)O)c1)/C(=C\c1cccc([N+](=O)[O-])c1)NC(=O)c1ccc(Br)cc1	.	.	-3	-17	.	3	6	.
Cc1ccc(C)c(S(=O)(=O)N2CCCCC2CCNC(=O)C(=O)NC2CCCC2)c1 (configuration not stated)	.	.	2	-5	-10	-2	-16	i
COc1ccc(S(=O)(=O)N2CCN(CCC(=O)Nc3ccccc3F)CC2)cc1	7	-7	.	-9	2	-1	-8	.
O=C(Nc1ccccc1Br)c1c(F)cccc1Cl	-1	-5	-12	-13	-9	-2	4	i
Cc1nn(CC(=O)NCC2CCCO2)c(=O)c2cc3ccccc3n12 (configuration not stated)	5	0	-2	-20	-16	3	1	i
O=C(CCN1CCOCC1)Nc1cc(C(=O)Nc2ccc(Cl)cc2)ccc1N1CC2CC(C1)c1cccc(=O)n1C2 (configuration not stated)	-7	6	27	3	4	3	1	i
CC(SCc1ccccc1)C(=O)Nc1ccc(F)cc1 (configuration not stated)	6	-15	-7	-6	-16	6	-1	i
O=C(/C=C/c1ccc(Cl)cc1)c1cccnc1	-9	3	.	.	9	1	7	i
Cc1ccc(NC(=S)N2CCN(Cc3ccccc3)CC2)c(C)c1	2	13	4	-3	-2	-2	-2	i
C[N+]1(CC2COC3(CCCCC3)O2)CCCCC1 (configuration not stated)	.	.	-6	-13	-14	-3	1	i
O=C(Cc1cccc(NC(=O)C2CCCN(C(=O)C3CC3)C2)c1)Nc1cccc(C(=O)N2CCCCC2)c1 (configuration not stated)	.	.	12	11	.	2	1	.
O=C(CSc1nc(=O)n2cc(Cl)ccc2n1)Nc1ccc2c(c1)OCO2	.	.	-33	.	-7	-6	4	i
CCOC(=O)C1CCCN(C(=O)c2cc(C)oc2C)CC1 (configuration not stated)	.	.	-55	-22	.	-2	-2	.
CCOc1cc(/C=N/NC(=O)NN(C)c2ncc(C(F)(F)F)cc2Cl)ccc1O	-6	-6	3	.	-4	2	-1	i
COCCN(C(=O)CCC(=O)Nc1cc(C)on1)C(C(=O)NC(C)(C)C)c1cccc(OC)c1OC (configuration not stated)	-8	9	-9	6	10	-1	-1	i
CN(Cc1cnn(Cc2ccccc2)c1)C(=O)CN=C1NS(=O)(=O)c2ccccc21	.	.	6	-11	.	8	1	.
Cc1cccc(-c2cc3c(nn2)-c2ccccc2C3=O)c1	-3	-6	.	-28	7	-3	5	i
COc1cc(NC(=O)/C=C/c2ccccc2)c(C(=O)O)cc1OC	-5	-4	10	-6	-3	-1	2	i
CCSc1nc(N)c2c3c(sc2n1)CCC3	-10	0	.	-8	11	-2	-2	i
Cc1c(C(=O)O)sc2[nH]c(=O)n(Cc3ccccc3)c(=O)c12	-5	5	-7	-6	-12	0	4	i
CCCn1c(/N=C/c2c[nH]c3ccccc23)nc2ccccc21	-4	4	.	-17	-13	0	-1	i
C=CCC(C(=O)OC)(C(=O)OC)c1ccc([N+](=O)[O-])cn1	-8	-6	-26	-5	2	2	7	i
CCCCC(=O)Nc1nnc(S(=O)(=O)N2CCCCCC2)s1	.	.	-19	-10	1	-2	0	i
CCOc1cc(N2CCOCC2)c(OCC)cc1NCC(=O)N1CCN(Cc2ccccc2)CC1	95	14	-1	.	3	5	-2	i	eIF4H inh retest=6;PABP FP inh retest=0
Cc1ccnc(NC(=O)CCC(=O)N(CC(=O)NC2CCCCC2)CC2CCCO2)c1 (configuration not stated)	-10	-3	.	8	-8	2	3	i
CC(C)(C)n1nc2c(c1NC(=O)c1ccc([N+](=O)[O-])cc1)CS(=O)(=O)C2	-8	3	12	-12	0	-2	3	i
CN(CC(=O)NC1CCCCC1)S(=O)(=O)c1ccc(Br)s1	-2	4	.	.	-14	12	3	i
Cc1cc(C)n(-c2cc(N3CCN(C(=O)c4ccccc4C)CC3)ccc2[N+](=O)[O-])n1	.	.	.	-20	0	2	-3	i
CCc1nc2ccc(C(=O)Nc3ccc4c(c3)OCC(=O)N4)cn2c1N(CC)CCOC	.	.	-7	-11	.	-3	-2	.
Cc1ccccc1C(=O)Nc1cccc(NC(=O)Cn2cnc3c(=O)n(C)c(=O)n(C)c32)c1	-4	0	.	-6	-5	-3	-15	i
CSc1ccccc1NC(=O)Cc1ccccc1[N+](=O)[O-]	2	-10	0	.	-8	-1	0	i
O=C(CN(c1ccccc1)S(=O)(=O)c1ccc(F)cc1)NCc1cccs1	.	.	7	-22	.	1	1	.
O=C(CCc1nc2ccccc2c(=O)[nH]1)OCC(=O)N1CCN(S(=O)(=O)c2ccccc2)CC1	-1	5	.	-46	6	-6	-3	i
O=[N+]([O-])c1ccc(Cl)c(S(=O)(=O)/N=C(/Nc2cccnc2)c2ccccc2)c1	.	.	.	-25	-3	1	-1	.
Cc1cc(OCC(=O)Nc2cnn(CCCC(=O)O)c2)ccc1[N+](=O)[O-]	1	5	-10	.	.	3	0	i
O=C1CN(C(=O)Cn2ncc(Cl)c(Cl)c2=O)c2ccccc2N1	27	-4	-170	.	.	-7	-7	i

Arranged by count of non-hydrogen atoms (high to low): part of the list above.
SMILES	eIF4H inh	PABP FP inh	HIV Env fusion	Yeast UUG start	CSC inhib	MT1-MMP act inh	MT1-MMP act inh RFP	Rce1 inhib	others
Cc1ccccc1C(=O)Nc1cccc(NC(=O)Cn2cnc3c(=O)n(C)c(=O)n(C)c32)c1	-4	0	.	-6	-5	-3	-15	i
O=[N+]([O-])c1ccc(Cl)c(S(=O)(=O)/N=C(/Nc2cccnc2)c2ccccc2)c1	.	.	.	-25	-3	1	-1	.
Cc1cc(OCC(=O)Nc2cnn(CCCC(=O)O)c2)ccc1[N+](=O)[O-]	1	5	-10	.	.	3	0	i

The list continues:
SMILES	eIF4H inh	PABP FP inh	HIV Env fusion	Yeast UUG start	CSC inhib	MT1-MMP act inh	MT1-MMP act inh RFP	Rce1 inhib	others
Cc1cc(NC(=O)c2ccc3c(c2)C(=O)N(C)C3=O)no1	-9	4	10	-10	15	1	4	i
CC(C)CNc1nc(N)c([N+](=O)[O-])c(NCc2ccccc2)n1	1	3	9	-19	-9	2	-7	i
CN1CCc2c(n(CC(O)CNCc3ccccc3)c3ccccc23)C1=O (configuration not stated)	-15	-2	26	.	6	-3	0	i
O=C(NCc1ccccc1F)C1CCC(=O)N(Cc2ccc(Cl)cc2)C1 (configuration not stated)	-1	10	-5	-19	-6	6	4	i
Nn1c(SCc2ccc(Br)cc2)nnc1-c1cccnc1	5	4	9	.	-2	0	3	i
CCN(CC)C(=O)C1CCCN(Cc2cccc(Oc3ccccc3)c2)C1 (configuration not stated)	4	-7	14	.	-4	0	5	i
COc1ccc2c(c1OC)C(=O)N1C2SC[C@H]1C(=O)NCCC(C)C (some centres not stated)	-1	10	3	-7	-6	-7	-3	i
O=C(NCc1ccco1)C(c1ccccc1)N(C(=O)Cc1cccs1)c1ccccc1F (configuration not stated)	-1	-11	-87	-17	7	-4	-4	i
NC(=O)c1ccccc1NC(=O)CSC1=NCCS1	-2	-4	0	-14	-1	-1	4	i
Cc1[nH]nc(SCC(=O)NCCc2ccccc2)c1[N+](=O)[O-]	-6	-2	-1	.	-3	-1	3	i
CCCCn1c(N)c(N(CCOC)C(=O)COC(=O)COc2cc(C)c(Cl)cc2C(C)C)c(=O)[nH]c1=O	.	.	-2	.	.	-1	-3	i
C/C(=N\Nc1nc2ccccc2s1)c1ccc2c(c1)OCO2	-1	-5	-11	.	0	1	3	i

High-throughput results from PubChem BioAssay.

These rows are one share of the data, so the mix of outcomes need not match the whole.
